Assay outcomes (PubChem)
Mtb MenB inh – inhibitors of Mycobacterium tuberculosis MenB enzyme | MenB enzyme assay, absorbance read-out; some hits fall short of the stated cut | inhibition, %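 (about 12 µg/mL by stock and volumes)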 | actives 0.43% (n = 100,000) | AID 540299;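 active means mean of two replicates above 30%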;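 further: 0% = no compound and 100% = wells with inactive enzyme; the first replicate is given; strong numbers were not always called active; inactives centre near -10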
Target sequence (P9WNP5 whole entry, looked up): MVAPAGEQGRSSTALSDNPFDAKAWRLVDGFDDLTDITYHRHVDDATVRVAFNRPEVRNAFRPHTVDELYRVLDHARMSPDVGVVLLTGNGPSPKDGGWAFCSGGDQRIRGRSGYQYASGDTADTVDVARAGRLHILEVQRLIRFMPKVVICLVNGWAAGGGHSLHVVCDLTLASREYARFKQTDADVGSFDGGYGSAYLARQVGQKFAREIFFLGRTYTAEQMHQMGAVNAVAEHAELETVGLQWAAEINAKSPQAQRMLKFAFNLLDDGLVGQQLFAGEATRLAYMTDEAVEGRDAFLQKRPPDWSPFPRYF
MbtI inh – blocks the Mycobacterium tuberculosis siderophore enzyme MbtI. AID 493033. inhibition, %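 (about 17 µg/mL by stock and volumes)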. actives 0.89% (n = 100,000). P9WFX0. purified MbtI enzyme, fluorescence intensity read-out;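 active means above 50% in both replicates, above 80% if mildly self-fluorescent; inactive means the rest, strongly fluorescent compounds included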;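 further: 0% = mean of negative and 100% = mean of positive controls; one replicate is shown; some compounds called inactive have numbers as strong as hits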
Target sequence (P9WFX0 whole entry, looked up): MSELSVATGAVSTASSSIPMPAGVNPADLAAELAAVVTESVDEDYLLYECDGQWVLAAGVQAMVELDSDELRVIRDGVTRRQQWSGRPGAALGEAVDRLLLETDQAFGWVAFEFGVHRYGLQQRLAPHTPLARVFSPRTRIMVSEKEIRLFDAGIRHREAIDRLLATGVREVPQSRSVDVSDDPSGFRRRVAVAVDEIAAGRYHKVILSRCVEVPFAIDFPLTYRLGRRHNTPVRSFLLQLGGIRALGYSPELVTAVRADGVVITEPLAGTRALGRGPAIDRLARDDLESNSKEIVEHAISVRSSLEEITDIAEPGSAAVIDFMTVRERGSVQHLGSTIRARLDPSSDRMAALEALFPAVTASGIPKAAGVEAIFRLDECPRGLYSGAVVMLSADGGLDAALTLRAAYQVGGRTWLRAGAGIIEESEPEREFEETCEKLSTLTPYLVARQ
PV pol inh – poliovirus RNA polymerase inhibition. P03300. actives 0.66% (n = 150,000). poliovirus polymerase elongation, fluorescence polarization; active compounds read low. % elongation, % (compound at 16.7 µg/mL); in the data active means % elongation below about 90%; further: some results filed as inactive read as strong as hits
PV pol inh intensity – also measured in PV pol inh; calls as there; % elongation; measured here: total intensity read-out; formula for this scale not given here;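 total fluorescence in place of polarization; lower means less elongation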
The depositor's hits bear a star; i = inactive; · = not tested or not shown; & = joins results of further samples.

Screens in order: Mtb MenB inh, MbtI inh, PV pol inh, PV pol inh intensity
#1 Nc1nc(CN2CCCCC2)cs1
 : 39*, -12, 101, 102
#2 C=C(C)C1CCC(C)=C1COC(=O)c1ccccc1 (configuration not stated)
 : -48, 12, 102, 105
#3 Cc1ccc2onc(CNC(=O)N3CCc4ccccc43)c2c1
 : -4, -3, 102, 101
#4 O=C(CNS(=O)(=O)c1cccc(C(F)(F)F)c1)NC1CCCCCC1
 : -3, -11, 108, 106
#5 C/C(=C(/CCO)SSCC1CCCO1)N(C=O)Cc1cnc(C)nc1N (configuration not stated)
 : -5, 14, 99, 101
#6 CN(C)c1ccc(C2(O)C(=O)c3ccccc3C2=O)cc1
 : ·, -13, 101, 101
#7 CCN1C(=O)N(CC)C2NC(=S)NNC21 (configuration not stated)
 : -3, -8, 104, 103
#8 Cc1sc2c(c1C)C1=NS(=O)(=O)CCN1C=N2
 : -33, 112, 76*, 98*
#9 CCn1c(CCC(=O)NC(C#N)c2ccc(F)cc2)nc2cc(S(=O)(=O)N(C)C)ccc21 (configuration not stated)
 : -10, -8, 116, 132
#10 CCN1CCN(c2nc(C)c3c(n2)CC(c2ccco2)CC3=O)CC1 (configuration not stated)
 : -15, 15, 104, 101
#11 CCN1CCN(c2cc(C)c3cc(NC(=S)NC4CCCC4)ccc3n2)CC1
 : -17, 6, 101, 99
#12 CSc1nnc(C(C)(C)C)c(=O)n1N
 : 4, 7, 100, 103
#13 CN1CCC(N(C)C(=O)Nc2c[nH]c3ccccc23)CC1
 : 15, 58, 102, 107
#14 O=C(O)c1ccc(Br)c(C(=O)O)c1
 : -8, ·, 102, 109
#15 Cc1cc(CC(=O)NN)n[nH]1
 : -6, -8, 99, 105

The results go on.
Screens in order: Mtb MenB inh, MbtI inh, PV pol inh, PV pol inh intensity
#16 O=S1(=O)CCC(S(=O)(=O)NCc2ccco2)C1 (configuration not stated)
 : -45, 14, 102, 102
#17 CC(=O)NC1CCCCc2sccc21 (configuration not stated)
 : 6, ·, 107, 115
#18 Cc1ccn2cc(CSc3ccccc3N)nc2c1
 : -11, -13, 105, 106
#19 CC(=O)NC12CC3CC(C)(C1)CC(NC(C)=O)(C3)C2
 : -26, -17, 104, 104
#20 CN(C)P(=NC(=S)Nc1ccccc1)(N(C)C)N(C)C
 : -46, 15, 97, 101
#21 COc1ccc(NC(=O)N2CCC(c3nc4ccccc4[nH]3)CC2)cc1
 : 23, -14, 101, 103
#22 Nc1ccc(-c2nc3ccc(-c4nc5ccccc5o4)cc3[nH]2)cc1
 : -2, 117, 100, 104
#23 Cc1ccc(/C(C#N)=C/c2ccc(N(C)C)cc2)cc1
 : -47, 1, 105, 102
#24 CCOc1ccc(C(=O)NCCO)cc1
 : 1, -18, 102, 103
#25 CCN(c1cccc(C)c1)S(=O)(=O)c1ccc2c(c1)N(C)CCO2
 : 8, -5, 102, 102
#26 COc1ccc2c(c1OC)C(=O)OC2C1c2cc3c(cc2CCN1C)OCO3 (configuration not stated)
 : 2, -7, 100, 103
#27 Cc1cc(C)c2[nH]c(=O)c(CN(CCN3CCOCC3)C(=O)Nc3ccc(F)cc3)cc2c1
 : -22, 12, 102, 100
#28 CC(CN1CCCN(C)CC1)c1ccccc1 (configuration not stated)
 : -22, -5, 102, 103
#29 O=C(O)CSc1nnc(NC2CCCCC2)s1
 : 1, 11, 98, 104
#30 COc1ccccc1Nc1nc(N)nc(CN2CCC(C)CC2)n1
 : -10, -1, 100, 101

Continuation.
Screens in order: Mtb MenB inh, MbtI inh, PV pol inh, PV pol inh intensity
#31 CC(=O)O/N=C(\N)COc1ccc(-c2nnco2)cc1
 : -7, -4, 102, 106
#32 Cc1ccc(C2C3=C(CC(C)(C)CC3=O)OC3=C2C(=O)CC(C)(C)C3)cc1
 : -18, ·, 107, 111
#33 O=c1cc(CSc2ccc(Cl)cc2)nc(N2CCN(Cc3ccc4c(c3)OCO4)CC2)[nH]1
 : -15, 11, 104, 109
#34 O=C(O)C1CCCCN1Cc1cccc(F)c1 (configuration not stated)
 : 2, -4, 103, 101
#35 CN(/C=C/C(=O)C(F)(F)F)c1ccccc1C(=O)O
 : -16, 107, 104, 107
#36 CC(=O)Nc1ccc(NC(=O)C(C)OC(=O)C2(c3ccc(F)cc3)CCCC2)cc1 (configuration not stated)
 : ·, 1, 101, 104
#37 CCOC(=O)c1sc(N2C(=O)C(=O)/C(=C(/O)c3ccc(OC)c(C)c3)C2c2ccccc2)nc1C (configuration not stated)
 : -17, ·, 110, 117
#38 N#Cc1cccc(NC(=O)C(F)(F)F)c1
 : -19, -40, 101, 104
#39 CCOc1ccc(C(=O)Nc2cc(OC)c(OC)cc2C(=O)OC)cc1
 : -12, 86, 101, 104
#40 c1ccc(Cn2c[n+](Cc3ccccc3)cn2)cc1
 : ·, -13, 104, 102
#41 O=C(O)CC(CC(=O)Nc1ccccn1)c1ccccc1 (configuration not stated)
 : -14, -3, 104, 102
#42 CCC1CCCCN1C(=O)CSc1cnc2ccccc2n1 (configuration not stated)
 : -8, 2, 106, 127
#43 COc1ccc(-c2nn(-c3ccccc3)cc2C=C2C(=O)CC(C)(C)CC2=O)cc1
 : 2, 6, 102, 102
#44 O=C(CSc1nc2ccccc2s1)Nc1ccncc1
 : -6, ·, 99, 105
#45 Cc1sc2ncn(CC(=O)Nc3ccccc3)c(=O)c2c1C
 : -10, ·, 104, 110

Continuation:
Screens in order: Mtb MenB inh, MbtI inh, PV pol inh, PV pol inh intensity
#46 O=C(O)c1ccccc1S(=O)(=O)c1ccccc1C(=O)O
 : -5, 8, 105, 102
#47 O=C(c1cccc(F)c1)N1CCOCC1
 : 3, -24, 101, 104
#48 Cc1csc(-c2cc3ccccc3oc2=O)n1
 : -29, -258, 105, 101
#49 Cc1ccccc1NC(=O)NCCCN1CCCC1
 : 4, -8, 102, 105
#50 C=CCN1CCN(C(=O)c2csc(CCC)c2)CC1
 : -1, -22, 101, 101
#51 Cc1cc(C(=O)Oc2cccc(Cl)c2)n(C(C)(C)C)n1
 : 11, 7, 100, 103
#52 CCOc1ccccc1C=Nc1ccc(Br)cc1
 : 0, ·, 105, 108
#53 CN(C(=O)c1ccco1)c1ccccc1C(=O)NCCc1ccccc1
 : -43, 3, 105, 102
#54 S=C(c1nc2ccccc2[nH]1)N1CCOCC1
 : -61, 45, 98, 95
#55 Fc1cc(Br)ccc1N=Cc1ccco1
 : -16, 41, 147, 165
#56 O=C1N(CN2CCCCC2)c2ccccc2C12OCCCCO2
 : 3, -6, 101, 104
#57 Brc1cccc(OCCSc2ncccn2)c1
 : -5, -5, 100, 105
#58 CN(C(=S)S)C1CCS(=O)(=O)C1 (configuration not stated)
 : -45, 2, 101, 102
#59 CN=C1SC(CC(=O)NC(N)=O)C(=O)N1C (configuration not stated)
 : -15, -2, 101, 103
#60 COc1cc2c(cc1OC)-c1cc(=Nc3c(C)cc(C)cc3C)n(C)c(=O)n1CC2
 : -6, -12, 100&98, 105&103

The list continues.
Screens in order: Mtb MenB inh, MbtI inh, PV pol inh, PV pol inh intensity
#61 O=C(O)CCCC(=O)Nc1ccccn1
 : -30, ·, 105, 99
#62 Cc1ccc(S(=O)(=O)NN2C(=O)c3ccccc3NC23CCCC3)cc1
 : -7, 114, 101, 101
#63 CC1(C)C(=O)Nc2ccccc2N1C(=O)COC(=O)c1cc(S(=O)(=O)N2CCOCC2)ccc1F
 : -7, -3, 104, 107
#64 O=S(=O)(NN1CCOCC1)c1ccc(Br)cc1
 : -1, -4, 103, 103
#65 CC1=CCC2C(=O)N(CCc3c[nH]c4ccccc34)C(=O)C2C1 (configuration not stated)
 : -6, -22, 100, 105
#66 COc1ccccc1CCN(Cc1ccco1)Cc1ccco1
 : -18, -5, 103, 102
#67 CCOC(=O)/C=C1\SCC(=O)N1CCSc1nc(C)cs1
 : 4, 12, 116, 117
#68 O=S(=O)(Nc1ccc(O)cc1)c1ccc2ccccc2c1
 : ·, -2, 92, 88
#69 CC(C)CN(CC(C)C)CC(O)Cn1cnc2c1c(=O)n(C)c(=O)n2C (configuration not stated)
 : -12, 4, 103, 102
#70 CCn1c(CN(C)CCOc2ccc(OC)cc2)nc2cc(S(=O)(=O)N(C)C)ccc21
 : -20, -11, 101, 107
#71 O=C(OCc1ccc(-c2cc(C(F)(F)F)cc(C(F)(F)F)c2)o1)c1ccc2c(c1)CCO2
 : -7, 7, 101, 109
#72 O=C(CN1CCC(NC(=O)NC2CCCCC2)CC1)NCc1ccccc1
 : -29, 1, 101, 100
#73 COC(=O)Nc1ccccc1NC(=O)OC
 : -13, -3, 100, 104
#74 CNC(=O)COC(=O)c1nc(Cl)c(Cl)c(Cl)c1Cl
 : 1, -6, 93, 104
#75 CC(=O)Nc1ccc(S(=O)(=O)NCC(=O)OCc2cc(=O)n3cc(Br)ccc3n2)cc1
 : 4, -13, 107, 109

More results.
Screens in order: Mtb MenB inh, MbtI inh, PV pol inh, PV pol inh intensity
#76 O=C1c2ccc(-c3nc4ccccc4c(=O)o3)cc2C(=O)N1c1cccnc1
 : -10, -3, 102, 104
#77 CNC(=O)CCCn1nc(C)c2c(C)n(-c3ccc(C)cc3)nc2c1=O
 : 4, -4, 103, 98
#78 O=C(/C=C/c1ccccc1)NC1CCSC1=O (configuration not stated)
 : 22, 18, 102, 101
#79 CS(=O)(=O)Nn1cnc2ccccc2c1=O
 : -20, -5, 102, 101
#80 COc1ccc2nc(C)cc(N3CCOCC3)c2c1
 : -16, ·, 104, 104
#81 NC(N)=N/N=C/c1ccccc1C(F)(F)F
 : 0, 10, 100, 99
#82 N#Cc1ccccc1NC(=O)Nc1ccc(CN2CCOCC2)cc1
 : 8, i, 101, 102
#83 CSc1nsc(SCC(=O)N2CCCC2)n1
 : 19, 3, 100, 102
#84 CCCC/C(=N\O)c1c(C)[nH]c2ccccc12
 : -21, ·, 105, 91
#85 COc1ccc2ccc(Oc3ncccn3)cc2c1
 : 0, -10, 102, 99
#86 COc1ccc(Br)c2c1OCCO2
 : -7, ·, 110, 110
#87 CC(OC(=O)c1ccccc1NS(C)(=O)=O)C(=O)Nc1ncc(Cl)cc1Cl (configuration not stated)
 : -33, -74, 105, 98
#88 CCOC(=O)c1c(NC(=S)Nc2cc(C)nn2-c2ccccc2)sc(C)c1C
 : 14, 4, 107, 101
#89 O=c1[nH]c(=O)n([C@H]2C[C@H](O)[C@@H](CO)O2)cc1Br
 : 0, 3, 100, 101
#90 O=C(Cc1csc(-c2ccccc2)n1)Nc1cccnc1
 : 15, 11, 100, 105

(further entries)
Screens in order: Mtb MenB inh, MbtI inh, PV pol inh, PV pol inh intensity
#91 NC(=O)c1cc[n+](CC2=C(C(=O)[O-])N3C(=O)[C@@H](NC(=O)Cc4cccs4)[C@H]3SC2)cc1
 : 7, -5, 101, 103
#92 Cn1c(=O)c2ccccc2n(CC(N)=O)c1=O
 : -31, 66, 107, 100
#93 CC(C)CC(=O)N1CCN(C(=O)C2CC2)CC1
 : -65, -1, 104, 99
#94 Cc1nc(SCCOc2ccccc2)sc1C(=O)Nc1ccccc1
 : -16, 11, 100, 102
#95 O=C(O)c1c(-n2cccc2)sc2c1CCCC2
 : 3, ·, 104, 109
#96 CN(C)C(=O)CSc1nc2ccc(Cl)cc2[nH]1
 : 12, 13, 100, 97
#97 Cc1cc(Cl)c(Cl)cc1S(=O)(=O)n1cccn1
 : -11, -10, 102, 102
#98 CC(C#N)Sc1nn(-c2ccc(Cl)c(Cl)c2)c(=S)s1 (configuration not stated)
 : -9, -1, 109, 115
#99 O=c1/c(=C/c2ccc(-c3ccc(F)cc3)o2)sc2nc3cc(Br)cnc3n12
 : -61, 18, 105, 107
#100 CCOC(=O)/C(C#N)=C(\C)C1CCCCC1
 : -25, -6, 97, 97
#101 CN(C(=O)Cn1cnc2onc(-c3ccc(F)cc3)c2c1=O)c1ccc(Br)cc1
 : -10, -13, 105, 103
#102 CC(C)(C)C(=O)/C=c1\[nH]c(=O)/c(=C\c2cn(CCC#N)nc2-c2ccccc2)s1
 : -10, 22, 107, 113
#103 N#CC(C(=O)C1COc2ccccc2O1)c1nc2ccccc2s1 (configuration not stated)
 : -16, 11, 104, 87
#104 CCOC(=O)c1c(C)oc(NC(=O)COc2ccc(Cl)cc2Cl)c1C#N
 : -28, -2, ·, ·
#105 CCN(CC)S(=O)(=O)c1ccc2c(c1)nc1n2CCCCC1
 : ·, -10, 103, 101
#106 CCOC(=O)c1ccc(N2C(=O)CC(N3CCN(Cc4ccccc4Cl)CC3)C2=O)cc1 (configuration not stated)
 : -1, -2, 103, 102
#107 COC(=O)C(CC(=O)c1ccc(Br)cc1)n1nc(C)cc1C (configuration not stated)
 : -23, 18, 104, 103

Structural class: the entries above with a thiophene ring, fused or not (7)
Screens in order: Mtb MenB inh, MbtI inh, PV pol inh, PV pol inh intensity
#8 Cc1sc2c(c1C)C1=NS(=O)(=O)CCN1C=N2
 : -33, 112, 76*, 98*
#17 CC(=O)NC1CCCCc2sccc21 (configuration not stated)
 : 6, ·, 107, 115
#45 Cc1sc2ncn(CC(=O)Nc3ccccc3)c(=O)c2c1C
 : -10, ·, 104, 110
#50 C=CCN1CCN(C(=O)c2csc(CCC)c2)CC1
 : -1, -22, 101, 101
#88 CCOC(=O)c1c(NC(=S)Nc2cc(C)nn2-c2ccccc2)sc(C)c1C
 : 14, 4, 107, 101
#91 NC(=O)c1cc[n+](CC2=C(C(=O)[O-])N3C(=O)[C@@H](NC(=O)Cc4cccs4)[C@H]3SC2)cc1
 : 7, -5, 101, 103
#95 O=C(O)c1c(-n2cccc2)sc2c1CCCC2
 : 3, ·, 104, 109
